Source: PubChem BioAssay (National Center for Advancing Translational Sciences (NCATS))
HSD17B inhib = qHTS Assay for Inhibitors of HSD17B4, hydroxysteroid (17-beta) dehydrogenase 4 | AID 893, 2007 | 7.6% of 75,000 active | Potency, µM (top dose mostly 57.1 µM), without a hit: at the highest dose activity change, negative = inhibition, hits mostly inhibitors | recombinant HSD17B10, NADH fluorescence kinetic; many of its hits are not listed in these tables; active = well fitted inhibition curve with a large enough effect; inconclusive = small, poorly fitted or top-dose-only effect; inactive = no such curve, though single readings can be large or run the other way;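 note: the protocol describes HADH2 (HSD17B10) and not the HSD17B4 of the title; nearly all actives have a fitted effect of over 70% in size; most hits overshoot -100% by far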
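Enzyme plus compound, 15 min room temperature; substrate mix added (NAD+ 1 mM, beta-hydroxybutyryl-CoA 90 uM final); plates read kinetically for NADH fluorescence. HADH2 was His-tagged, E. coli-derived, 20 nM.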
* = called active by the depositor; ? = inconclusive; & = joins results of further samples; [ ] = remark or other dose. % is set by controls: 0 for no effect and ±100 for the full control effect; potency is the fitted concentration of half-maximal effect. The list is partial (hit frequency here may not be typical).

> COc1ccc2c(c1)OCc1c-2oc2cc(OC)ccc12
  HSD17B inhib: -28%
> CCC1CCCCN1C(=O)Nc1ccc(F)cc1 (stereo unspecified)
  HSD17B inhib: 6%
> O=C(O)c1ccccc1-c1ccc(/C=c2\sc3nc4cc(Br)cnc4n3c2=O)o1
  HSD17B inhib: 7.9µM*
> CCCc1nc(N)c(C#N)c(-c2ccco2)c1CC
  HSD17B inhib: ?
> N=c1sccn1CC(=O)Nc1ccccc1-c1ccccc1
  HSD17B inhib: 5%
> Cc1ccc(S(=O)(=O)Nc2nncs2)cc1
  HSD17B inhib: -16%
> COC(=O)c1cc(NC(=O)c2c(Cl)nc3sccn23)cc(C(=O)OC)c1
  HSD17B inhib: -3%
> O=C(O)Cc1[nH]cnc1C(=O)O
  HSD17B inhib: 5%[11.4 µM]
> CC(C)(C)C(=O)/C=C(N)/C=C/c1ccccc1
  HSD17B inhib: -3%
> O=C(Nc1cc(N2CCOCC2)ncn1)Nc1cccc2ccccc12
  HSD17B inhib: -23%

> COc1ccc(NC(=O)N2CC[C@@]3(CCCN(S(C)(=O)=O)C3)C2)cc1
  HSD17B inhib: -1%
> COc1ccccc1OCCn1c(CO)nc2ccccc21
  HSD17B inhib: 10%
> O=C(NCCCN1CCOCC1)c1cc(-c2ccc(Cl)cc2)on1
  HSD17B inhib: 5%
> O=C1CSC(=Nc2cc(Cl)ccc2Cl)N1
  HSD17B inhib: 2%
> CC1=CC(=O)CC(C)(C)C1(O)/C=C/C(C)=C\C(=O)O (stereo unspecified)
  HSD17B inhib: 8%
> Cc1cc(C)c2c(n1)SCC(=O)N2CC(=O)NCCC1=CCCCC1
  HSD17B inhib: 2%
> COC(=O)c1ccc(CSCC(=O)Nc2cc(OC)cc(OC)c2)o1
  HSD17B inhib: 6%
> C[C@@](N)(C(=O)O)c1ccc(P(=O)(O)O)cc1
  HSD17B inhib: -6%
> C=NC(C(=O)NC1C(=O)N2C1SC(C)(C)C2C(=O)O)c1ccccc1 (stereo unspecified)
  HSD17B inhib: 32µM*
> Cc1ccc(C)c(NC(=O)c2ccccc2O)c1
  HSD17B inhib: ?

> CCOC(=O)c1c(NC(=O)c2ccc(Cl)s2)sc(C)c1C
  HSD17B inhib: -18%
> CCc1ccccc1O
  HSD17B inhib: 2%
> O=C(O)c1cc2c(ccc3ccccc32)[nH]1
  HSD17B inhib: ?
> COc1ccc(C2C(C(C)=O)=C(C)N=c3s/c(=C\c4cc(C)n(C)c4C)c(=O)n32)c(OC)c1 (stereo unspecified)
  HSD17B inhib: -2%
> O=C(N1CCCCCC1)N1CCN(C(=O)N2CCCCC2)CC1
  HSD17B inhib: 3%
> N#C/C(=C\c1ccc[nH]1)S(=O)(=O)c1ccccc1
  HSD17B inhib: -10%
> Cc1sc(NC(=O)CCCC(=O)O)c(C#N)c1C
  HSD17B inhib: 4%
> N#CC1=C(O)C(c2ccccc2)n2c1nc(=O)c1ccccc12 (stereo unspecified)
  HSD17B inhib: 32µM*
> CCOC(=O)c1sc(=S)n(CC)c1NC(=O)C1CC1
  HSD17B inhib: -3%
> O=C(NCc1cccs1)C1CCN(c2nccs2)CC1
  HSD17B inhib: -1%

> Nn1cnnc1SCC(=O)Nc1ccc2c(c1)OCCO2
  HSD17B inhib: -2%
> O=C(Cc1ccc(Cl)cc1)NCCN1CCCC1
  HSD17B inhib: -9%
> CCc1nnc(NC(=O)C2CC(=O)N(c3ccc(C)cc3)C2)s1 (stereo unspecified)
  HSD17B inhib: -15%
> COC(=O)C/C=C\[C@@H](C)[C@@H](CO)NS(=O)(=O)c1ccc(C)cc1
  HSD17B inhib: 1%[11.4 µM]
> O=C(CSc1nnc(Cc2cccs2)n1Cc1ccco1)Nc1ccc(Cl)cc1Cl
  HSD17B inhib: -11%
> O=C(COC(=O)c1cccc(S(=O)(=O)N2CCc3ccccc32)c1)NC1CCS(=O)(=O)C1 (stereo unspecified)
  HSD17B inhib: 11%
> CCOc1cc(C2C(C(=O)OC)=CN(C3CCCC3)C=C2C(=O)OC)cc(Br)c1O
  HSD17B inhib: 25µM*
> CCOC(=O)N1CCC(NC(=O)C2CCN(C(=O)N3CCOc4ccccc43)CC2)CC1
  HSD17B inhib: 6%
> Cc1cc(NC(=O)c2noc3c2CCCC3)nn1Cc1ccc(Cl)cc1
  HSD17B inhib: -24%
> CCOC(=O)C1=C(C)OC(N)=C(C#N)C1c1cc2c(cc1Br)OCO2 (stereo unspecified)
  HSD17B inhib: -29%

> O=C(OCC(=O)N1CCN(C(=O)c2ccco2)CC1)c1ccccc1C(=O)c1ccc(Cl)cc1
  HSD17B inhib: -4%
> COc1cc(OC)c(C(=O)CCCCN2CCC3(CC2)NC(=O)NC3=O)cc1NS(=O)(=O)c1ccc(C(F)(F)F)cc1
  HSD17B inhib: -16%
> Cc1noc(C)c1COc1ccc(C(=O)OCC(=O)c2ccc3c(c2)OCCO3)cc1
  HSD17B inhib: 6%
> O=C1CC(C(=O)NCc2ccccc2)C2(CCCC2)O1 (stereo unspecified)
  HSD17B inhib: 0%
> CC(NC(=O)CSc1ncnc2nc[nH]c12)c1ccccc1 (stereo unspecified)
  HSD17B inhib: -3%
> Cc1ccc(CN2C(=O)CCC2C(=O)NCCCN2CCC(C)CC2)cc1 (stereo unspecified)
  HSD17B inhib: -8%
> CCOC(=O)Nc1ccc2c(c1)nc(CN1CCOCC1)n2C
  HSD17B inhib: 10%
> COc1ccc(N=C(N(C)C)P(=O)(N(C)C)N(C)C)cc1
  HSD17B inhib: 2%
> CCOC(=O)Cc1csc(NC(=O)c2ccoc2C)n1
  HSD17B inhib: 3%
> CCOC(=O)CSc1nnc(CNC(=O)Cc2ccccc2)n1-c1ccccc1OC
  HSD17B inhib: -4%

> O=c1[nH]c2ccccc2n1CCCSc1cnc2ccccc2n1
  HSD17B inhib: 0%
> COCC(=O)NCCc1nc(-c2ccccc2)cs1
  HSD17B inhib: 2%
> Cc1ccc(S(=O)(=O)NCC(=O)OCC(=O)N2CCc3ccccc32)cc1
  HSD17B inhib: 6%
> Cn1c(SCC(=O)NCC2CCCO2)nc2c([nH]c3ccccc32)c1=O (stereo unspecified)
  HSD17B inhib: -18%
> COc1cc2c(cc1OC)C1Cc3ccc(OC)c(OC)c3CN1CC2 (stereo unspecified)
  HSD17B inhib: 7%&-1%
> Cc1cc(-c2nnc(SCc3cccnc3)o2)no1
  HSD17B inhib: 11%
> Cc1ccc(NC(=O)NC2CCN(CC(=O)Nc3nccs3)CC2)cc1
  HSD17B inhib: 3%
> CCOC(=O)NC(Nc1cc(C)ccn1)(C(F)(F)F)C(F)(F)F
  HSD17B inhib: 19%
> CCOc1ccc(S(=O)(=O)n2c(C)nc3ccccc32)cc1
  HSD17B inhib: 4%
> CCOC(=O)C1=C(C)NC(=O)NC1c1ccoc1 (stereo unspecified)
  HSD17B inhib: -2%

> CN(c1ccccc1C(=O)N1CCCC1)S(C)(=O)=O
  HSD17B inhib: 16%
> Cc1ccc(O)c(C(=O)CC(=O)c2cccc(F)c2)c1
  HSD17B inhib: 112%[activator]
> O=C(O)CCC1=C2c3ccccc3CCN2C(=O)CC1
  HSD17B inhib: -6%
> O=c1[nH]c(SCc2ccc(Cl)cc2)nc2c1CCC2
  HSD17B inhib: 0%
> COc1cccc(C2=NOC(C(=O)NCC3CCCO3)C2)c1 (stereo unspecified)
  HSD17B inhib: 2%
> COc1ccc(C(=O)CCC(=O)N2CCN(c3ccc(N4CCOCC4)nn3)CC2)cc1
  HSD17B inhib: 25µM*
> CCCn1c(C)nc2c(N(CCN(C)C)Cc3ccccc3)nc(C)nc21
  HSD17B inhib: 4%
> Cc1sc2ncnc(NCCCn3ccnc3)c2c1C
  HSD17B inhib: -3%
> CCC(=O)Nc1ccc(C(=O)CSc2nnc(CNc3ccc(Cl)cc3)o2)cc1OC
  HSD17B inhib: 8%
> O=C(NCCCN1CCOCC1)c1ccc(S(=O)(=O)N2CCOCC2)cc1
  HSD17B inhib: 15%

The list goes on.
Compound	HSD17B inhib
O=C(COc1ccc(Cl)cc1)N1CCN(Cc2ccc3c(c2)OCO3)CC1	-3%
CC1CCCN(c2nc3c(c(=O)n(C)c(=O)n3C)n2Cc2ccccc2)C1 (stereo unspecified)	3%
CCOC(=O)C1CCCN(c2c(NCCCN(C)Cc3ccccc3)c(=O)c2=O)C1 (stereo unspecified)	1%
O=C(OCCCN1CCCCC1)c1ccc(O)cc1	16%
CC1=c2c(oc3cc(O)c(Nc4c(C)cc(O)cc4O)c(C)c23)=CC(=O)C1=Nc1c(C)cc(O)cc1O	3.2µM*
O=C(COc1ncnc2c(Cl)cc(Cl)cc12)N1CCCCC1	20%
CCC1=C2CC[C@H]3C(=O)N(CC)C(=O)[C@H]3[C@H]2[C@@]2(Cc3ccccc3)C(=O)N(CCOC)C(=O)N2C1=O	1%
CCOC(=O)C1CCCN(c2c(NCCCN(CC)c3ccccc3)c(=O)c2=O)C1 (stereo unspecified)	-3%
COc1ccc(NC(=O)N2CC3(CCN(C(C)=O)CC3)C2)cc1	1%
CCCN1C2CCCC1CC(NC(=O)c1ccccc1OCC)C2 (stereo unspecified)	-1%
O=C(CCn1nc(-c2ccccc2)c2ccccc2c1=O)NCC1CCCO1 (stereo unspecified)	-3%
CCCC(C(=O)NC1CCCC1)N(CC1CCCO1)C(=O)c1snc(C(N)=O)c1N (stereo unspecified)	?
Cc1nn(C)c(N)c1C(O)(c1nccn1C)C(F)(F)F (stereo unspecified)	9%
COCCN1C(=O)C(O)=C(C(C)=O)C1c1ccc(F)cc1 (stereo unspecified)	-16%
COc1ccc(N2Cc3cccc(C(=O)NC(C)CCc4ccco4)c3C2=O)cc1 (stereo unspecified)	20µM*
O=C(CCNS(=O)(=O)c1cccs1)Nc1nccs1	10%
COc1cccc(C2CC(=O)Nc3cc4c(cc32)OCCO4)c1OC(C)C (stereo unspecified)	-2%
COc1cc(OC)cc(-c2nc(-c3ccc(Br)cc3)no2)c1	0%
O=C(CCN1C(=O)c2ccccc2C1=O)Nc1sc2c(c1C(=O)NCc1ccco1)CCCC2	7%
O=C(NCCO[N+](=O)[O-])c1cccnc1	-17%
Cc1c(Cl)cccc1-n1nnnc1-c1cccs1	3%
CCCSc1nc(C)c(-c2csc(C(C#N)=C3CCCC3)n2)cc1C#N	?
O=C(Oc1ccccc1)N1CCC2(CCCN(c3ncccn3)C2)CC1	-26%
Cc1c(C(=O)c2no[n+]([O-])c2C(=O)c2cnn(C)c2C)cnn1C	-13%
COc1ccccc1N1CCN(C(=O)c2oc3cc(C)c(C)cc3c2C)CC1	2%
CCCC[C@H]1C[C@@H]1[C@@H]1N(P(=O)(c2ccccc2)c2ccccc2)C[C@@](O)(c2ccccc2)CC12CC2	10%
Cc1cc(=O)oc2cc(OC(C)C(=O)N3CCCc4ccccc43)ccc12 (stereo unspecified)	20µM*
Cc1ccnc(N2C(=O)c3ccccc3C2Nc2ccc3c(c2)OCCO3)c1 (stereo unspecified)	-4%
CC(C(=O)NC(=O)NC1CCCCC1)N1CCN(c2ccccn2)CC1 (stereo unspecified)	-4%
CCOC(=O)c1cc2oc(C)cc2n1CC(=O)OC1CCCCC1	?
Cc1ccc2nc(-c3ccccn3)cc(C(=O)N3CCN(c4ncccn4)CC3)c2c1	11%
COc1ccc(C(=O)Nc2ccc(N3CCOCC3)cc2)cc1OC	-1%
O=C(NC(Cc1ccc2c(c1)OCO2)C(=O)N1CCCC1C(=O)O)c1ccccc1 (stereo unspecified)	10%
COC(=O)C1=CN(CCCN2CCCC2=O)C=C(C(=O)OC)C1c1ccccc1C(F)(F)F	32µM*
CSc1nc(C)cc(NC(N)=O)n1	5%
CC(C(=O)O)N1C(=O)c2cccc3cccc1c23 (stereo unspecified)	3%
CCCN(CCC)CCNC(=O)Cn1cnc2sc(C)c(S(=O)(=O)N3CCOCC3)c2c1=O	6%
CCCCn1c(C(C)O)nc2ccccc21 (stereo unspecified)	-2%
NC(=O)CNC(=O)C1CCCc2c1[nH]c1ccc(Cl)cc21 (stereo unspecified)	14%
COC(=O)C(NC(=O)c1ccccc1)=C1CCCCC1	-1%
CCOC(=O)C1=C(CS(=O)(=O)c2ccc(F)c(C)c2)NC(=O)NC1c1ccc(O)c(O)c1 (stereo unspecified)	?
COc1ccc(OC)c(NC(=O)CN2C(=O)c3ccccc3S2(=O)=O)c1	-1%
O=c1c2ccccc2nnn1Cc1nnc(-c2ccccc2Br)o1	0%
COc1ccc2[nH]c(C(=O)c3ccccc3)cc2c1	5%
CCOc1ccccc1/C=C(\C#N)C(N)=O	-4%[11.4 µM]
COCCN1CCn2c(nc3cc(NC(=O)c4ccc(OC)cc4)ccc32)C1	25µM*
Cc1ccc(CN2C(=O)CCC2C(=O)NC2CCCC2)cc1 (stereo unspecified)	-1%
CCCCCCC(=O)Nc1ccc(Cl)cn1	-1%
Cc1cc(C(=O)NCC(c2ccco2)N(C)C)no1 (stereo unspecified)	3%
CCCCc1ccc(NC(=O)N[C@H](C(=O)O)C(C)CC)cc1 (stereo partly specified)	-3%
CC(C)CC(=O)N1CCN(C(=O)c2cccc(F)c2)CC1	-2%
CCOc1nc(-c2ccccc2)ccc1-c1noc(-c2cccnc2)n1	32µM*
